KCNQ2 pot: KCNQ2 (rat) channel potentiation; O88943; CHO-K1 KCNQ2, FluxOR thallium flux fluorescence; hits give high values; B-score at 10 µM; hit rate 0.54% among 310,000;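 active = fluorescence ratio B-score at least 3 SD of library B-scores, with initial fluorescence B-score within 3 SD, cut at about 5.3 in these data; same plate scores as AID 2156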;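 also: B-score of peak minus minimum over baseline fluorescence ratio after K+ and Tl+ stimulus; positive B-score means potentiation of KCNQ2 with more thallium influx and brighter signal; only the inactives scoring about 0 or higher are listed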
Target sequence (O88943 whole entry, looked up): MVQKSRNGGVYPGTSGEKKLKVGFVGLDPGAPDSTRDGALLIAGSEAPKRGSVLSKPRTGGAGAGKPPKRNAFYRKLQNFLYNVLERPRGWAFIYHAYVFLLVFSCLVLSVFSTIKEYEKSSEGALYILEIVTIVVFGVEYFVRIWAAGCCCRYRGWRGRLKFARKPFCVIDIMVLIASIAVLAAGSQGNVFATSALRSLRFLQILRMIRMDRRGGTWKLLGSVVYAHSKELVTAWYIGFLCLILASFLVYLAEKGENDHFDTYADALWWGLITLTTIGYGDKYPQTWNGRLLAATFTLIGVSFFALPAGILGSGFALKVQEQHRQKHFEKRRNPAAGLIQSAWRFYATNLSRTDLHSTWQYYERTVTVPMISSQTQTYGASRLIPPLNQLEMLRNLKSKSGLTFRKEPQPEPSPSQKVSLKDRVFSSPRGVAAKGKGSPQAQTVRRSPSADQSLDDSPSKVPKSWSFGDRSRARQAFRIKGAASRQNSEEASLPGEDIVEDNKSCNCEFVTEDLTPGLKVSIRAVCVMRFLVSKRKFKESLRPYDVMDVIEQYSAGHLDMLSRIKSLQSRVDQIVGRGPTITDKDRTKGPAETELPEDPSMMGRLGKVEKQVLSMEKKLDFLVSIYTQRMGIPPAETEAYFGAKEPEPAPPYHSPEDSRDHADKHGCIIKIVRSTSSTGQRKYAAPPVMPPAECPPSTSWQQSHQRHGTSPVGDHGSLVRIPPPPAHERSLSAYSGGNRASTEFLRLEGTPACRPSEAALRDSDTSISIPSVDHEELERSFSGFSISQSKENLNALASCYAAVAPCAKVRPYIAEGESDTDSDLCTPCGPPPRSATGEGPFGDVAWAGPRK
KCNQ2 pot baseline: further read-out of KCNQ2 pot, marked with its call; B-score; compound at 10 µM; measured here: initial fluorescence intensity artifact check;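 brightness before thallium and not channel activity; 0 = typical well and far values either way flag optical interference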
Starred values were filed as active, the others as inactive.

KCNQ2 pot | KCNQ2 pot baseline | canonical_smiles
0.09 | -0.39 | COc1ccc(/C(C)=N/N=C(N)N)c(OC)c1
0.06 | 2.5 | CCOc1ccc(CNC(=O)C2Cc3cc(S(=O)(=O)N4CCCC4)ccc3N2C(C)=O)cc1 (centres undefined)
1.4 | -0.62 | CCOc1ccc(CCNC(=O)CSc2nn(-c3ccc(C)c(Cl)c3)c(=S)s2)cc1OCC
0.77 | 1.1 | CCCCNC(NCCCC)=C(S(=O)(=O)CC)S(=O)(=O)CC
1.5 | 1.1 | COCCCNC(=S)Nc1cc(C)c(C)cc1C
0.19 | 0.22 | CCOC(=O)c1ccc(NC(=O)c2cc(=O)[nH]c3ccccc23)cc1
2.9 | -2.5 | COc1ccc(CCNC(=O)C2CCN(S(=O)(=O)c3ccc(-n4cnnn4)cc3)CC2)cc1OC
0.01 | -0.12 | Cn1c(=O)oc2cc(S(=O)(=O)NCCCN3CCCC3=O)ccc21
0.74 | -0.39 | O=C(Nc1nn[nH]n1)C12CC3CC(CC(C3)C1)C2
0.42 | -1.2 | CCc1ccccc1SCc1noc(C(=O)NCC2CCCO2)c1C(=O)O (centres undefined)

Reprinted at random: two entries already listed
KCNQ2 pot | KCNQ2 pot baseline | canonical_smiles
1.5 | 1.1 | COCCCNC(=S)Nc1cc(C)c(C)cc1C
0.77 | 1.1 | CCCCNC(NCCCC)=C(S(=O)(=O)CC)S(=O)(=O)CC

(list continues)
KCNQ2 pot | KCNQ2 pot baseline | canonical_smiles
0.74 | -0.32 | Cc1c(CCOC(=O)c2cc([N+](=O)[O-])ccc2Cl)sc[n+]1CCCCS(=O)(=O)[O-]
0.48 | 0.1 | CCOC(=O)CCc1c(C)c2ccc(OCc3ccc([N+](=O)[O-])cc3)cc2oc1=O
1.2 | -0.8 | CC1(C)N=C(N)N=C(N)N1c1cccc(C(=O)O)c1
1.1 | -0.54 | CCCN(C(=O)c1cccc(S(=O)(=O)N2CCN(C)CC2)c1)c1c(N)n(Cc2ccccc2)c(=O)[nH]c1=O
0.36 | -0.83 | CC(C)(CO)NC(=O)C12CC3CC(CC(Br)(C3)C1)C2
1.2 | 0.84 | Cc1cc(NC(=O)CSc2nnc(-c3ccco3)n2Cc2ccco2)no1
0.18 | 0.38 | CCOc1ccc(CCNC(=O)C(O)c2ccccc2)cc1 (centres undefined)
1.1 | 0.01 | CCCCCC1NC(=O)NC1CCCCCC(=O)O (centres undefined)
0.79 | -0.91 | COc1ccccc1N1CCN(C(=O)c2n[nH]c3ccccc23)CC1
2.3 | 0.21 | COC(=O)c1cc(NS(=O)(=O)c2ccc3c(c2)c(=O)n(C)c(=O)n3C)cc(C(=O)OC)c1
1.1 | -1.1 | COc1ccc(CSc2nnc(C)n2N)cc1[N+](=O)[O-]
1.6 | -0.06 | CCN(CC)S(=O)(=O)c1ccc(Cl)c(OC)c1
1.6 | 0.2 | CCCCCCN(C(=O)CCCCCN1C(=O)NC(c2ccc(-c3ccccc3)cc2)C(C(=O)OCc2ccccc2)=C1C)C(C(=O)NCCCC)C1CCCCC1 (centres undefined)
1.1 | 1.3 | CS/C(=N\S(=O)(=O)c1ccc(Cl)cc1)c1ccccc1
1.7 | -0.97 | CC(C)CSc1nc2ccccc2c(=O)[nH]1
0.52 | -0.11 | O=C(CCc1ccccc1)NC1CCSC1=O (centres undefined)
1.2 | -3.2 | Cn1cnnc1SCC(=O)NC1CCCCCC1
0.1 | 3.2 | CC(=O)OCC(=O)Nc1ccc([N+](=O)[O-])cc1Cl
0.56 | 0.18 | CC(C)c1ccc(/C=C2\SC(=S)N(CCC(=O)N3CCCCC3CCO)C2=O)cc1 (centres undefined)
0.79 | 1.1 | O=C(C1CCCO1)N1CCN(C(=S)Nc2ccc(F)cc2)CC1 (centres undefined)
0.99 | 2.7 | O=C(CSC1=NCCS1)Nc1cccc2ccccc12
0.33 | -0.47 | CCOc1ccc2nc(Cl)c(C3CC(c4ccco4)=NN3S(C)(=O)=O)cc2c1 (centres undefined)
0.36 | -2 | Cc1ccc(CNC(=O)c2nnn(CC(=O)Nc3cc(C)cc(C)c3)c2N)cc1
0.05 | 0.99 | CN(C)Cc1c(O)ccc2c(=O)c(-c3ccccc3)c(C(F)(F)F)oc12
0.74 | -0.26 | CCN(Cc1cc2cc(OC)ccc2[nH]c1=O)C(=O)Cc1ccc(OC)cc1
0.03 | 1.1 | CCOC(=O)NC(=O)/C(C#N)=N\Nc1cccc(OC)c1
6.9* | -0.09* | Cc1cccc(NC(=O)C2CC3CCC2C3)c1C (centres undefined)
0.02 | 0.15 | CCOC(=O)c1nnn(-c2nonc2N)c1-c1ccc(C)cc1
0.94 | 4.1 | CCOC(=O)C(Cc1ccccc1)C(=O)NCc1cccnc1 (centres undefined)
1.3 | -0.92 | Clc1ncnc2scc(-c3ccccc3)c12
0.04 | -0.02 | Cc1cccc(Cn2ccc(NC(=O)c3cccnc3)n2)c1
0.01 | 0.09 | O=C(Cn1c(=O)oc2cc(S(=O)(=O)N3CCCC3)ccc21)NCc1ccc(F)cc1
0.51 | -0.21 | COc1ccc(CC(=O)NCc2csc(-c3cccs3)n2)cc1OC
0.11 | 0.78 | CCOc1cccc2cc(C(=O)N3CCN(C/C=C/c4ccccc4)CC3)c(=O)oc12
0.15 | 0.12 | COCCCNC(=O)c1ccc(OC)c(OC2CCN(C(C)C)CC2)c1
0.16 | 0.37 | CS(=O)(=O)N(CCc1ccccc1)CC(=O)N1CCN(c2ccccc2)CC1
0.18 | 0.02 | CCOc1ccc(S(=O)(=O)NCc2cccnc2)cc1NC(=O)c1ccccc1F
0.84 | 2.8 | Cc1ccc(O)c(-c2cc(C(=O)NCc3ccncc3)[nH]n2)c1
0.14 | 0.03 | CCOC(=O)C1C(=O)CC(C)(O)C(C(=O)OCC)C1c1ccc(C)s1 (centres undefined)
0.2 | -0.21 | COC(=O)C(Cc1ccccc1)NC(=O)CCNC(=O)c1ccco1 (centres undefined)
1.1 | 0.06 | COc1cc(OC)c(C(=O)Nc2ccc(N(C)C)cc2)cc1OC
0.02 | -0.97 | FC(F)(F)c1cccc(Oc2ccc3c(C(F)(F)F)cc(C(F)(F)F)nc3n2)c1
0.78 | -0.48 | Cc1c(C(=O)Oc2cc(N)n(S(C)(=O)=O)n2)cccc1[N+](=O)[O-]
0.52 | 4.8 | O=S(=O)(Nc1nc2ccccc2nc1NCc1ccco1)c1ccccc1
0.19 | -0.03 | C/C(N)=C(/C#N)C(=O)CSc1nnc(Nc2c(C)cccc2C)s1
1.4 | -0.57 | CC(C)C(=O)NC(=S)Nc1ccccc1N1CCN(C(=O)c2ccccc2)CC1
1.8 | -0.08 | COCc1ccc(C(=O)NCC2(N3CCCCC3)CCCCC2)cc1
0.41 | 0.25 | O=C(O)Cc1c(C(=O)O)[nH]c2ccc(C(=O)O)cc12
0.24 | 0.37 | COc1ccc(C(=O)Nc2ccccn2)cc1
0.53 | 0.33 | CCn1c(C)nc2cc(-c3nc4n(n3)Cc3ccccc3-4)ccc21

A few values from the entries so far:
CCn1c(C)nc2cc(-c3nc4n(n3)Cc3ccccc3-4)ccc21 in KCNQ2 pot has 0.53
COc1cc(OC)c(C(=O)Nc2ccc(N(C)C)cc2)cc1OC in KCNQ2 pot has 1.1
O=S(=O)(Nc1nc2ccccc2nc1NCc1ccco1)c1ccccc1 in KCNQ2 pot has 0.52

(listing goes on)
KCNQ2 pot | KCNQ2 pot baseline | canonical_smiles
0.35 | -1.1 | COC(=O)c1ccc2nc(NC(=O)C(C)C)sc2c1
1.2 | 0.12 | O=C(Nc1cc(F)cc(F)c1)c1ccc(NCCc2ccccc2)c([N+](=O)[O-])c1
1 | 0.01 | Cc1nc2c(ccc3nc(NC(=O)c4ccc(S(=O)(=O)N(C)C)cc4)sc32)s1
0.18 | 0.84 | CCCNC(=O)NC(=O)COc1c(F)c(F)cc(F)c1F
1.6 | 0.34 | Cc1ccc(CNC(=O)CCS(=O)(=O)c2ccc3c(c2)oc(=O)n3C)cc1
0.92 | 0.11 | Cn1c(=O)c2c(SCC(=O)NC3CCCC3)nc(CC(C)(C)C)nc2n(C)c1=O
0.79 | 0.08 | O=C(Nc1ccc(Br)cn1)c1ccc(Br)s1
2.5 | -0.04 | O=C(Cc1ccc(Br)cc1)Nc1ccc(Cl)cc1
0.2 | 0.8 | CC(=O)c1sc(NC(=O)C=C(C)C)nc1C
0.04 | 1.4 | O=C(CCC(=O)OCC(F)(F)C(F)F)NCc1ccccc1
0.25 | -1.2 | Cc1ccnn1Cc1cc(C(=O)O)c2ccccc2n1
0.59 | -1.8 | Cc1ccc(CNC(=O)C2CC(c3cccc([N+](=O)[O-])c3)=NO2)o1 (centres undefined)
0.09 | -0.72 | Cc1cc(C)cc(C(N)=Nc2cccc(C#N)c2)c1
0.04 | 0.75 | COc1cc(NC(=O)COc2ccccc2)ccc1NC(=O)c1ccco1
0.88 | 3 | CCOC(=O)NC(Nc1nnc(SCC)s1)(C(F)(F)F)C(F)(F)F
0.15 | 1.2 | Cc1cc(N/C=C/C(=O)c2ccccc2)ccc1Br
0.51 | 0.8 | CCN(CC)S(=O)(=O)c1cccc(NC(=O)COC(=O)CCC(=O)c2cccs2)c1
0.82 | 0.64 | Cc1ccc(CC(NC(=O)c2ccccc2)C(=O)NC(CC(C)C)C(=O)O)cc1 (centres undefined)
0.11 | 1.1 | Cc1ccc2nc(Nc3ccc(Cl)cc3)c3nncn3c2c1
0.22 | -0.06 | O=c1cc(-c2ccccc2)c2cc(Cl)ccc2[nH]1

Compounds shown so far that contain a CF3 group, in the order listed:
KCNQ2 pot | KCNQ2 pot baseline | canonical_smiles
0.05 | 0.99 | CN(C)Cc1c(O)ccc2c(=O)c(-c3ccccc3)c(C(F)(F)F)oc12
0.02 | -0.97 | FC(F)(F)c1cccc(Oc2ccc3c(C(F)(F)F)cc(C(F)(F)F)nc3n2)c1
0.88 | 3 | CCOC(=O)NC(Nc1nnc(SCC)s1)(C(F)(F)F)C(F)(F)F

(listing goes on)
KCNQ2 pot | KCNQ2 pot baseline | canonical_smiles
0.53 | -0.01 | CC(NC(=O)c1ccc(C23CC4CC(CC(C4)C2)C3)cc1)C(=O)O (centres undefined)
3.3 | 2.5 | CCN(CC)S(=O)(=O)c1ccc(-c2nnc(SCC(=O)Nc3cc(OC)cc(OC)c3)o2)cc1
0.5 | 1.9 | CCOC(=O)c1ccc(NC(=O)CSc2n[nH]c(-c3ccncc3)n2)cc1
0.29 | -1.6 | O=C(CCNS(=O)(=O)c1cccc2nonc12)Nc1ccc(Cl)cc1
1.5 | -2.4 | CCOC(=O)c1c(-c2ccc(OC)cc2)csc1/N=C/C1=C(O)CCCC1=O
1 | -2.1 | CSc1ccccc1C(=O)C1CCCN(C(=O)CCc2cccnc2)C1 (centres undefined)
1.7 | -3.6 | COc1ccc(NC(=O)C2C(=O)NC3(C)CC2c2ccccc2O3)cc1 (centres undefined)
2.2 | -0.92 | CC(C)C(=O)NC(=S)Nc1ccccc1C(=O)Nc1ccccc1
1.2 | 0.82 | Cc1ccc(NS(=O)(=O)c2ccc(C3CCCCC3)cc2)cc1
1.3 | -1 | O=C(NCc1ccc(F)cc1)C1CC(=O)N(C2CCCCC2)C1 (centres undefined)
0.35 | -0.33 | CCc1nnc(NC(=O)c2ccc(Cl)nc2)s1
1 | -0.35 | CCOc1cc2[nH]c(=S)n(CCC(=O)NCc3ccco3)c(=O)c2cc1OCC
0.19 | -2.1 | O=C(COC(=O)c1ccc(O)cc1O)Nc1cc(-c2ccccc2)nn1-c1ccccc1
0.91 | -0.65 | O=C1CC(=O)CC(c2ccccc2)C1
0.03 | -0.32 | CCC1(c2ccccc2)NC(=O)N(CC(=O)N(C)Cc2ccccc2)C1=O (centres undefined)
0.87 | 0.01 | Cc1ccc2c(c1)C1C3CCC(C3)C1S(=O)N2 (centres undefined)
0.19 | -0.93 | CCC1(CC)C(=O)C2=C3C1[C@H](C(=O)OC)C=C(C(=O)OC)C[C@H]3n1c(=O)n(C)c(=O)n1[C@H]2C (some centres undefined)
0.14 | -0.54 | O=C(CSc1nc(C2CCCCC2)nc2ccccc12)NCc1ccco1
0.9 | -0.37 | O=C(CCCc1nc2ccccc2s1)N1CCN(S(=O)(=O)c2cccs2)CC1
0.64 | -0.46 | Nc1ccc(C(=O)N/N=C/c2c[nH]c3ccccc23)cc1

Continued; it opens with the five that closed the last part.
KCNQ2 pot | KCNQ2 pot baseline | canonical_smiles
0.87 | 0.01 | Cc1ccc2c(c1)C1C3CCC(C3)C1S(=O)N2 (centres undefined)
0.19 | -0.93 | CCC1(CC)C(=O)C2=C3C1[C@H](C(=O)OC)C=C(C(=O)OC)C[C@H]3n1c(=O)n(C)c(=O)n1[C@H]2C (some centres undefined)
0.14 | -0.54 | O=C(CSc1nc(C2CCCCC2)nc2ccccc12)NCc1ccco1
0.9 | -0.37 | O=C(CCCc1nc2ccccc2s1)N1CCN(S(=O)(=O)c2cccs2)CC1
0.64 | -0.46 | Nc1ccc(C(=O)N/N=C/c2c[nH]c3ccccc23)cc1
3 | 0.67 | COc1nc2ccccc2nc1N1CCN(Cc2ccc3c(c2)OCO3)CC1
2.7 | -1.6 | CC(=O)CCCC(NS(=O)(=O)CCC(Cl)(Cl)Cl)c1ccccc1 (centres undefined)
0.02 | 2.1 | CCC12CN3CCN(CC(C3)/C1=N\NC(=O)c1ccc(C(C)(C)C)cc1)C2
0.9 | -2.5 | CC(=O)N1N=C2c3ccccc3CCC2C1c1ccc(F)cc1 (centres undefined)
0.32 | -0.06 | CC(C)Cn1c2c(c(=O)[nH]c1=O)C(C(F)(F)F)(C(F)(F)F)N=C(CCC1CCCCC1)N2
1.9 | -0.26 | O=C(Nc1ccc2c(c1)OCCO2)C1CCCN1C(=O)Nc1ccccc1 (centres undefined)
1.5 | -0.57 | CC(C)N(Cc1cc2ccccc2[nH]c1=O)C(=O)c1cccc([N+](=O)[O-])c1
0.32 | 0.19 | Cc1sc2nc(CN(C(=O)NC3CCCCC3)C3CCCC3)[nH]c(=O)c2c1C
4.2 | -0.74 | CCOC(=O)N1CCN(C(=O)c2ccc(Cl)c(S(=O)(=O)Nc3ccccc3)c2)CC1
0.67 | 0.41 | O=C(NCCN1CCCC1)C1CC(=O)N(C2CCCCC2)C1 (centres undefined)

Screening results deposited in PubChem BioAssay by Johns Hopkins Ion Channel Center.

This is a subset; rates above refer to the full screens.
